Bead autofluor – counter-screen for toxin protease inhibitors: compound fluorescence; AID 624483; compound autofluorescence counterscreen, microsphere flow cytometry; stronger effect = higher value; fluorescence intensity (concentration not given with the values); 360,000 compounds, 3.1% hits;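 active = at least 3 SD above the mean of all compounds, about 16000 in these data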;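 note: 100 nL of 1 mM stock went into each well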
BJeLR viability – MLPCN primary cell-based screen for lethality selective to Ras in HRASV12 cells. BJeLR (HRASV12) viability, CellTiter-Glo ATP luminescence, 48 h; reference of the scale not given here. inhibition, % (no concentration beside the values). 300,000 compounds, 0.17% hits;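 active = replicate mean above 50%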;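 note: 50 nL library stock added to about 25 µL; numbers are from one replicate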
Sa ugtP lethal – growth inhibition of ugtP-null S. aureus, primary screen, RN4220 ugtP deletion, OD600; 330,000 compounds, 0.54% hits; growth inhibition, % (no concentration beside the values); 16 h; some inactives read as strong as hits;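 active = z-score under -3 and OD600 up to 0.15 on both plates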;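 note: plate controls were untreated wells for no effect and antibiotic for full effect; wells of about 80 µL received 100 nL stock; the first replicate is given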
Sa RN4220 lethal – growth inhibition of S. aureus RN4220, primary screen, OD600; 16 h; inhibition, % (concentration not given with the values); 330,000 compounds, 0.33% hits;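 active = z-score of -3 or lower and OD600 up to 0.18 on both plates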;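 note: plate controls were untreated cells for no effect and reference antibiotic for full effect; stock transfer was 100 nL into about 80 µL; one replicate is shown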
Mtb hypoxia inh – PubChem AID 1159583. M. tuberculosis hypoxia-regulated fluorescent reporter, fluorescence. fluorescence inhibition, % (concentration not given with the values). 300,000 compounds, 0.1% hits;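 active = 35 to 45% if threefold the growth effect, above 45% if 1.5-fold the growth effect; inactive = the rest, general growth blockers included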;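 note: wells of about 50 µL received 100 nL stock; 0% = vehicle wells and 100% = reference inhibitor wells; whole bacteria with a GFP reporter of the hypoxia response; strong numbers were not always called active; many hits fall short of the cut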
PrP 5UTR inh – inhibition of PrP 5' UTR reporter expression; cell-based PrP 5' UTR mRNA reporter, plate reader; 340,000 compounds, 0.35% hits; inhibition, % (test concentration not listed);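 active = every replicate at 50% or more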;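 note: 0 = median of the neutral control wells; tested in H4 reporter cells; numbers are from one replicate; inactives centre near -14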
Mtb hypoxia inh growth – further read-out of Mtb hypoxia inh, marked with its call; growth inhibition, %; measured here: M. tuberculosis growth (absorbance);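 0% = vehicle and 100% = reference antibiotic; read after six days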
Numbers without * were called inactive; . = not tested or not shown.

SMILES	Bead autofluor	BJeLR viability	Sa ugtP lethal	Sa RN4220 lethal	Mtb hypoxia inh	Mtb hypoxia inh growth	PrP 5UTR inh
COc1ccc(-c2csc(CCn3nc(C)cc3C)n2)cc1	4624	3	4	-0.5	7	11	-17
Cc1ccsc1C=NNC(=O)C(O)c1ccccc1 (configuration not stated)	.	.	2	2.6	0	7	.
CN(C)c1ccc(CNS(=O)(=O)c2ccc3c(c2)NC(=O)CS3)cc1	5589	15	-1	2.4	4	7	-7
Cc1ccccc1S(=O)(=O)Cc1ccc(C(=O)N2CCN(c3ccc(F)cc3)CC2)o1	5231	11	0	3.8	4	6	-7
CCCCCn1c(NC(=O)c2ccco2)c(S(=O)(=O)c2ccc(C)cc2)c2nc3ccccc3nc21	5921	3	4	0.5	9	5	-7
COCCn1c(-c2ccc(C#N)cc2)nc2c1c(=O)[nH]c(=O)n2Cc1ccccc1	4575	2	8	6.0	5	9	-20
CN(C)CCCNCCCNC(=O)/C=N/O	7806	-2	.	.	.	.	-12
CCC(C)NS(=O)(=O)c1ccc(NC(=O)C2CCCO2)cc1 (configuration not stated)	5406	-7	-2	3.9	6	10	-14
COc1ccc(C(=O)NCCc2nnc3ccc(SCC(=O)N4CCOCC4)nn23)cc1	5128	0	1	2.0	-4	3	-1
Nc1ccc(N2CCOCC2)c2nonc12	4429	-4	8	5.2	5	2	-22
COc1ccc(-c2oc3ncnc(NCCCN4CCOCC4)c3c2-c2ccc(OC)cc2)cc1	10421	-1	-7	5.3	13	30	-11
Cc1cc(C(=O)OC2C(Cc3ccccc3)NS(=O)(=O)C3CC4C=C[C@]23O4)ccc1[N+](=O)[O-] (some centres not stated)	.	.	-13	1.9	4	0	.
O=C(O)CC(Cc1ccccc1)(C(=O)O)c1ccccc1 (configuration not stated)	3653	17	6	0.5	12	13	-9
CN(C)/C=C1\NC(=S)N(c2ccc(Cl)cc2)C1=O	4726	-4	-3	-4.1	-3	7	-24
CC(C)Cn1c(C23CC4CC(CC(C4)C2)C3)n[nH]c1=S	4299	2	-13	7.9	0	11	-13
CCCC(O)(c1ccc(Cl)cc1)C(CN1CCOCC1)c1ccc(Cl)cc1 (configuration not stated)	3513	9	-1	-5.7	4	6	.
Cc1cc(C(=O)Nc2ccccc2C(=O)N2CCCCC2)ccc1[N+](=O)[O-]	2082	-8	-5	7.0	10	3	-5
COC(=O)c1cc2c(cc1Cl)SC(=NCCCN1CCOCC1)NS2(=O)=O	2835	-1	1	3.8	.	.	-24
NC(=O)c1ccc(NC(=O)CS(=O)(=O)c2cn(CC(=O)N3CCCC3)c3ccccc23)cc1	4954	2	0	2.3	2	1	-3
N#CCc1ccc(NC(=O)c2ccc(S(=O)(=O)N3CCCC3)cc2)cc1	4588	7	-5	-2.9	-9	-4	-13

An excerpt of these results, with bars between the fields:
SMILES | Bead autofluor | BJeLR viability | Sa ugtP lethal | Sa RN4220 lethal | Mtb hypoxia inh | Mtb hypoxia inh growth | PrP 5UTR inh
Cc1cc(C(=O)Nc2ccccc2C(=O)N2CCCCC2)ccc1[N+](=O)[O-] | 2082 | -8 | -5 | 7.0 | 10 | 3 | -5
COC(=O)c1cc2c(cc1Cl)SC(=NCCCN1CCOCC1)NS2(=O)=O | 2835 | -1 | 1 | 3.8 | . | . | -24

(more compounds)
SMILES	Bead autofluor	BJeLR viability	Sa ugtP lethal	Sa RN4220 lethal	Mtb hypoxia inh	Mtb hypoxia inh growth	PrP 5UTR inh
CCn1c(N)c(C(=O)NCCOC)sc1=S	3132	-8	9	8.6	2	3	-18
Cc1ccc(-c2cc(C(=O)Nc3cnn(C(C)C)c3)no2)cc1	3160	-1	-13	6.5	6	3	-24
CCOC(=O)c1sc(NC(=O)C2CC(=O)N(c3ccccc3C)C2)nc1C (configuration not stated)	3714	-8	-1	4.3	-4	2	-15
CCOC(=O)C1CCN(C(=O)c2cccc(NS(=O)(=O)c3ccc(F)c(F)c3)c2)CC1	3138	-2	2	3.6	14	16	-19
CCn1c(=O)cc(SCC(=O)Nc2cccc(SC)c2)c2ccccc21	9919	-1	-32	-0.3	2	8	-6
CSc1nsc(SC)c1C(=O)OCC(F)(F)F	3921	2	6	2.8	.	.	-5
CC(=O)NC(Cc1ccc(N(CCCl)CCCl)cc1)C(=O)O (configuration not stated)	5706	2	5	3.8	-2	10	-7
N=c1oc2cc(O)ccc2cc1C(=O)Nc1ccc(Br)cc1	3135	3	7	-1.0	4	6	-84
CC(=O)Nc1ccc(S(=O)(=O)Oc2ccc(C(=S)N3CCCCC3)cc2)cc1	2657	1	4	3.9	4	4	-68
CC1=C(C(=O)OCc2ccccc2)C(c2ccccc2OS(=O)(=O)c2ccccc2[N+](=O)[O-])NC(=O)N1CCCC(=O)O (configuration not stated)	.	-2	11	8.6	-6	9	.
Cc1ccc(-n2c(-c3ccc(Cl)cc3)n[nH]c2=S)cc1	3155	5	11	0.5	1	-9	-1
O=C(O)CN=C1NC2(CCCC2)Cc2ccccc21	5784	-1	2	1.8	7	7	-12
O=C(OCCN(C1=NS(=O)(=O)c2ccccc21)c1ccccc1Cl)c1ccc(Cl)cc1	10619	-2	-11	-3.0	7	6	-25
C(/C=C/c1ccco1)=N/N1CCN(c2ccccc2)CC1	2408	-7	.	.	.	.	-57
COc1cccc(NS(=O)(=O)c2ccc3c(c2)C2C=CCC2C(c2ccc(C(=O)O)cc2)N3)c1 (configuration not stated)	2384	-3	14	32	10	-4	-17
CCCc1nc2ccccc2c(=O)n1N=Cc1ccc(O)cc1O	.	.	-1	15	-4	14	.
O=C1Nc2ccccc2C(c2ccccc2)=NC1O (configuration not stated)	3566	0	0	0.4	-3	0	-9
Cc1ccc(/C=N\NC(=O)C2CN(S(=O)(=O)c3ccccc3)CCN2S(=O)(=O)c2ccccc2)cc1 (configuration not stated)	8056	-1	.	.	.	.	3
O=C(Cc1cccs1)Nc1ccc(Cl)cc1	4706	1	0	-1.6	-4	9	-22
CC(C)CN(Cc1cc2ccccc2[nH]c1=O)C(=O)c1cccnc1	22057*	-4	5	4.3	-1	4	-24
C=CCSc1nc2sc(C)c(C)c2c(=O)[nH]1	6197	9	10	8.7	11	6	-7
O=S(=O)(c1ccccc1F)N1CCN(CCc2ccccc2)CC1	3728	-4	11	2.7	3	13	8
CC(=O)N/C(=C\c1ccc(Br)s1)C(=O)O	4700	-16	3	5.2	3	7	-19
Cc1cc(NC(=O)CCl)nn1C	3838	14	3	0.2	21	22	-27
COc1ccc(C=NNC(=O)C2COc3ccccc3O2)cc1O (configuration not stated)	.	.	-2	-6.3	3	8	.
Nc1c(N(Cc2ccco2)C(=O)COc2ccccc2Cl)c(=O)[nH]c(=O)n1Cc1ccccc1	6003	.	4	4.5	1	3	-16
O=C(Nc1cccc(Cl)c1)OCc1cn(-c2ccc(Cl)cc2)nn1	16617*	1	5	3.5	6	6	-16
CCC(=O)Nc1nnc(S(=O)(=O)N2CCCC2)s1	4381	3	7	3.3	11	4	-13
CCCC(=O)NC(=S)Nc1ccc(CN2CCOCC2)cc1	4591	13	19	4.0	5	0	-27
CCCCSc1cc(=O)n(-c2ccccc2)nc1C(=O)OCC	23302*	-16	-5	0.9	1	14	-1
Cc1ccnc(N2C3CCC2CC(O)(c2ccccc2)C3)n1 (configuration not stated)	4362	4	5	1.5	6	9	-25
O=C1CN(C(=O)COC(=O)c2ccc(N3CCCCCC3)c([N+](=O)[O-])c2)c2ccccc2N1	2690	-1	2	-6.7	1	-1	1
O=C(NCc1ccc2c(c1)OCO2)c1cc2ccccc2oc1=O	3036	0	-10	-12	-1	11	-17
Cc1ccccc1OCC(=O)N/N=C/c1cccn1C	4180	-2	.	.	.	.	-3
COc1ccccc1-c1cc(C(F)(F)F)nc(S(=O)(=O)CCCC(=O)Nc2cccnc2Cl)n1	3547	.	15	6.5	3	12	-13
O=C(NCCS(=O)(=O)N1CCN(c2ccccc2F)CC1)c1ccc2c(c1)OCO2	.	12	4	5.3	0	-2	-16
COc1ccc(C2C(C(C)=O)=C(O)C(=O)N2c2ccc(Br)cc2)cc1 (configuration not stated)	4069	-4	6	-0.1	14	2	-13
CN1CCN(c2ccc(NC(=O)CSc3nnnn3-c3ccccc3F)cc2)CC1	4151	-8	3	-0.3	13	7	-7
Cc1nn(C)c2ncc(C(=O)c3cc(F)ccc3O)cc12	2903	0	8	-0.1	.	.	4
CN(c1ccc(F)cc1)S(=O)(=O)c1ccc(Cl)c(C(=O)NC2(C)CCS(=O)(=O)C2)c1 (configuration not stated)	9595	.	2	5.0	8	2	-29

A second format for part of the listing above.
smiles: O=C(NCCS(=O)(=O)N1CCN(c2ccccc2F)CC1)c1ccc2c(c1)OCO2
  Bead autofluor = . | BJeLR viability = 12 | Sa ugtP lethal = 4 | Sa RN4220 lethal = 5.3 | Mtb hypoxia inh = 0 | Mtb hypoxia inh growth = -2 | PrP 5UTR inh = -16
smiles: COc1ccc(C2C(C(C)=O)=C(O)C(=O)N2c2ccc(Br)cc2)cc1 (configuration not stated)
  Bead autofluor = 4069 | BJeLR viability = -4 | Sa ugtP lethal = 6 | Sa RN4220 lethal = -0.1 | Mtb hypoxia inh = 14 | Mtb hypoxia inh growth = 2 | PrP 5UTR inh = -13
smiles: CN1CCN(c2ccc(NC(=O)CSc3nnnn3-c3ccccc3F)cc2)CC1
  Bead autofluor = 4151 | BJeLR viability = -8 | Sa ugtP lethal = 3 | Sa RN4220 lethal = -0.3 | Mtb hypoxia inh = 13 | Mtb hypoxia inh growth = 7 | PrP 5UTR inh = -7
smiles: Cc1nn(C)c2ncc(C(=O)c3cc(F)ccc3O)cc12
  Bead autofluor = 2903 | BJeLR viability = 0 | Sa ugtP lethal = 8 | Sa RN4220 lethal = -0.1 | Mtb hypoxia inh = . | Mtb hypoxia inh growth = . | PrP 5UTR inh = 4

Looked up above.
For Sa ugtP lethal, O=C(NCCS(=O)(=O)N1CCN(c2ccccc2F)CC1)c1ccc2c(c1)OCO2 has 4
For Sa RN4220 lethal, O=C1CN(C(=O)COC(=O)c2ccc(N3CCCCCC3)c([N+](=O)[O-])c2)c2ccccc2N1 has -6.7
For Bead autofluor, O=S(=O)(c1ccccc1F)N1CCN(CCc2ccccc2)CC1 has 3728

Next part.
SMILES	Bead autofluor	BJeLR viability	Sa ugtP lethal	Sa RN4220 lethal	Mtb hypoxia inh	Mtb hypoxia inh growth	PrP 5UTR inh
Cc1ccccc1CNC(=O)c1ccc(Cl)c([N+](=O)[O-])c1	2489	2	1	1.0	3	8	-23
COCCn1nnnc1SCC(=O)N1CCCCC1	4970	3	4	3.2	.	.	-8
Clc1ccc(CNC2CCCC2)c(Cl)c1	10079	0	-1	1.2	1	1	-26
COc1ccc(NC(=O)CSc2nnc3ccc(-c4ccncc4)nn23)cc1OC	6447	3	8	0.9	1	-3	-9
CCN(CC)C(=NS(=O)(=O)c1ccc(C)cc1)c1ccccc1	.	.	6	2.2	8	-1	.
C=CCOc1cccc(/C=N/NC(=O)CN2CCCCC2)c1	3352	-2	.	.	.	.	-14
Cc1cc(C(=O)CN2C(=O)NC3(CCCc4sccc43)C2=O)c(C)n1-c1ccc(Cl)cc1 (configuration not stated)	2320	-3	-2	3.6	2	-2	-19
O=C(CN1CCN(c2ccccn2)CC1)Nc1cccc(S(=O)(=O)N2CCCC2)c1	3255	-2	1	0.9	-14	-4	-9
COC(=O)/C=C1\SC(=Nc2ccccc2)NC1=O	10108	-1	1	8.1	13	2	-18

Screening results: PubChem, several laboratories
